Screens (PubChem BioAssay)
Vaccinia mCherry: vaccinia inhibition (mCherry reporter); hit rate 0.63% among 310,000; Vaccinia virus mCherry reporter infection, fluorescence; about a quarter of the inactives have no number; AID 720579; Potency, µM (highest dose often 36.5 µM), inactives show top-dose activity change, negative = inhibition, usual class: inhibitors; active = well fitted inhibition curve with a large enough effect; inconclusive = small, poorly fitted or top-dose-only effect; inactive = no such curve, though single readings can be large or run the other way; tested in A549 cells; further: nearly all actives have a fitted effect of over 35% in size; inactives centre near -10
Vaccinia Venus: vaccinia inhibition (Venus reporter). hit rate 0.46% among 330,000. Potency, µM (titrated, usually from 36.5 µM), for the others: at the top dose activity change, negative = inhibition, usual class: inhibitors. AID 720580. Vaccinia virus Venus reporter expression, fluorescence; active means well fitted inhibition curve with a large enough effect; inconclusive means small, poorly fitted or top-dose-only effect; inactive means no such curve, though single readings can be large or run the other way; tested in A549 cells; further: nearly all actives have a fitted effect of over 30% in size; inactives centre near -10
* marks the source's active call; other numbers are inactive results; i = inactive; ? = inconclusive; / = no result given; & = joins results of further samples; [ ] = another dose, or the depositor's remark. On the % scale 0 is the no-effect control and ±100 the full control effect; potency means the concentration at half of the fitted maximal effect. Not a hit list, and some 0.87% of all compounds hit somewhere here.

SMILES	Vaccinia mCherry	Vaccinia Venus
CCCN1/C(=C(/C#N)C2=NS(=O)(=O)c3ccccc32)N(C)c2ccccc21	-9%	-15%
Cc1cccc(NC(=O)C2C3C=CC4(O3)C2C(=O)N(CCCN2CCCC2)C4C(=O)NC2CCCC(C)C2C)c1 (stereo not given)	-28%	-12%
CCCCCCSc1nsc(N)n1	?	-15%
Cc1ccccc1C(=O)NNC(=O)C1CCN(c2ncccn2)CC1	-1%	9%
COCc1cc(C)nc(OCC(=O)N/N=C/c2ccc(O)cc2O)c1C#N	?	11%
Cc1ccc(S(=O)(=O)NCCc2csc(-c3ccc(Cl)cc3)n2)cc1	-25%	-21%
CCOC(=O)C(CC)c1cc2n(c(=O)c1C#N)CCC21OCCO1 (stereo not given)	i	3%
Cc1noc(C)c1-c1cc(Nc2ccc(F)cc2)ncn1	-19%	-21%
COc1ccc(Nc2ncnc3c2cnn3C)c(OC)c1	i	-9%
CCOP(=O)(OCC)C(NC(=O)c1cccs1)C(F)(F)F (stereo not given)	-5%	-20%
O=C1Nc2ccc(F)cc2C12Nc1ccccc1-c1nnc(SCc3ccccc3)nc1O2 (stereo not given)	i	0%
Cc1oc2c(C)c3oc(=O)c4c(c3cc2c1C)CCC4	-10%	-2%
CN1CCCCCC1C(=O)NCCN1Cc2ccccc2OC(c2ccsc2)C1 (stereo not given)	-1%	12%
CC(C)OC(=O)CSc1ncnc2c1cnn2Cc1ccccc1	/	-4%
COc1cccc(C2CC(=O)Nc3n[nH]c(-c4ccccc4)c32)c1OC (stereo not given)	i	-15%
COCCCN1C(=O)C(CC(=O)NC2CCCC2)CC(C(=O)N2CCOCC2)=C1C (stereo not given)	-15%	1%
COc1ccc(NC(=O)c2ccccc2C)c(OC)c1	-15%	-16%
COc1ccc(NC(=O)CSc2nc(SC)ns2)cc1	11µM*	?
c1ccc2[nH]c(NN=C3CCCCCC3)nc2c1	-8%	1%
CCC(C)NC(=O)CSc1nnc(-c2c[nH]c3ccccc23)o1 (stereo not given)	-11%	-9%
Cc1cccc(N2CCN(C(=O)/C=C/c3cccs3)CC2)c1C	i	-16%
Cn1cc(CN2CCN(c3ncccn3)CC2)c(-c2cccc(Cl)c2)n1	-13%	-19%
COc1ccc(OC)c(CCNC(=O)CCCc2nnc3n(C)c(=O)c4sccc4n23)c1	1%&-2%	4%&6%
COc1ccc(Cl)cc1NC(=O)Cn1nnc2sc3c(c2c1=O)CCC(C(C)(C)C)C3 (stereo not given)	-3%	-8%
COc1ccc(N2CC(NC(=O)Cc3cccs3)CC2=O)cc1OC (stereo not given)	-9%	-6%
Cc1ccc(S(=O)(=O)CCC(=O)Nc2cccc(C)c2)cc1	-22%	-11%
COc1ccccc1OC(C)C(=O)N1CCC(c2nc3ccccc3s2)CC1 (stereo not given)	-25%	-13%
COc1cc(OC)nc(Oc2ccccc2C(=O)Oc2ccc(F)cc2Cl)n1	-14%	-21%
O=[N+]([O-])c1ccc2c(c1)OCCOCCOCCOCCOCCOCCO2	i	-10%
O=C(CN1C(=O)C2C3CCC(C3)C2C1=O)Oc1ccc2ccccc2c1 (stereo not given)	-6%	-3%
Cc1nn(-c2ccccc2)c2nc(C3CC3)cc(C(=O)Nc3ccccc3F)c12	-27%	-28%
CCOc1ccc(NC(=O)c2ccc3c(c2)CCN3S(=O)(=O)c2ccc(Cl)cc2)cc1	-17%	-20%
CCOC(=O)CN(C(=O)COc1ccc2c(C)cc(=O)oc2c1)c1ccc(OCC)cc1	i	-6%
CCCSC1=C(C#N)C(c2ccccc2C)CC(=O)N1 (stereo not given)	/	-9%
Cc1ccc(C(=O)N2c3ccc(C)cc3C(C)(c3ccccc3)CC2(C)C)cc1 (stereo not given)	-8%	-11%
COCCNC(=O)c1c(N)n(Cc2ccco2)c2nc3ccccc3nc12	i	-3%

4 entries from above, as labelled records.
COc1cccc(C2CC(=O)Nc3n[nH]c(-c4ccccc4)c32)c1OC (stereo not given)
  Vaccinia mCherry: i; Vaccinia Venus: -15%

COCCCN1C(=O)C(CC(=O)NC2CCCC2)CC(C(=O)N2CCOCC2)=C1C (stereo not given)
  Vaccinia mCherry: -15%; Vaccinia Venus: 1%

COc1ccc(NC(=O)c2ccccc2C)c(OC)c1
  Vaccinia mCherry: -15%; Vaccinia Venus: -16%

COc1ccc(NC(=O)CSc2nc(SC)ns2)cc1
  Vaccinia mCherry: 11µM*; Vaccinia Venus: ?

Next section
SMILES	Vaccinia mCherry	Vaccinia Venus
OCCC1CN(C2CCSCC2)CCN1C1CCCC1 (stereo not given)	8%	7%
CC(C)c1ccc(NC(=O)COC(=O)CSc2nnc(N)s2)cc1	-5%	1%
O=C(CCSCc1ccccc1Cl)NCCc1ccccc1	-2%	5%
Cc1nc2ccccn2c1-c1ccnc(SCc2ccc(Cl)cc2)n1	-10%[7.34 µM]	-5%[7.34 µM]
COC(=O)c1ccc(NC(=S)NC2c3ccccc3CC2O)cc1 (stereo not given)	?	-13%
CCN(CC)CCN(Cc1cc2cc3c(cc2[nH]c1=O)OCCO3)C(=S)NCC1CCCO1 (stereo not given)	-6%	-16%
O=C(Nc1cnn(Cc2ccc(Cl)cc2Cl)c1)c1noc2c1CCc1ccccc1-2	-17%	-5%
Cc1cc(NC(=O)CCCN2C(=O)c3cccnc3C2=O)ccc1Br	0%	1%
Cc1ccc(OCC(=O)Nc2ccncc2)cc1C	i	-14%
CC(C)(C)c1ccc(S(=O)(=O)N2CCN(CC(O)CN3CCOCC3)CC2)cc1 (stereo not given)	-9%	-13%
COc1cc(C)c(S(=O)(=O)N2CCCC2)cc1C(C)C	-27%	-12%
COc1ccc(Nc2c(CCc3ccccc3)nc3nc(C)cc(C)n23)cc1	1%	-13%
O=c1[nH]nc(SCCS(=O)(=O)c2ccc(F)cc2)n1-c1ccc2c(c1)OCCO2	?	1.6µM*
O=[N+]([O-])c1cc(F)c(N2CCCCC2)cc1Br	?	-9%
Cn1c(=O)oc2cc(S(=O)(=O)N3CCc4ccccc4C3)ccc21	-6%	-5%
CCCCC1=CC2=C(c3ccco3)C(=O)C(C)(OC(=O)c3ccc(OC)cc3)C(=O)C2=CN1CCCN(CC)CC (stereo not given)	-16%	-11%
C=CCC(CC)C(=O)NC(=O)N1CCCc2ccccc21 (stereo not given)	-10%	4%
Cc1ccc(COC(=O)c2nn(C)c(=O)c3ccccc23)cc1	-17%	-20%
COc1ccc(CNC(=O)C/C(C)=N/NC(=O)C23CC4CC(CC(C4)C2)C3)cc1	6%	-2%
CC(C)Cc1ccc(CN2CCCC(NC(=O)c3cnc4ccccn4c3=O)C2)cc1 (stereo not given)	0%	-9%
CCN(CC)CCNC(=O)c1ccc(NC(=O)Cc2ccsc2)cc1	?	?
COc1ccc(C2c3c(ncn(Cc4ccco4)c3=N)Oc3ccc4ccccc4c32)cc1 (stereo not given)	-15%	-26%
COC(=O)[C@]12CCCCC=C1N(Cc1cccc3ccccc13)C(=O)[C@H](CC(=O)N1CCOCC1)C2	6%	-9%
CC(C)Nc1nc(NC2CCCC2)nc(N2CCOCC2)n1	i	-11%

Looked up above:
C=CCC(CC)C(=O)NC(=O)N1CCCc2ccccc21 (stereo not given) in Vaccinia mCherry: -10%
COc1ccc(C2c3c(ncn(Cc4ccco4)c3=N)Oc3ccc4ccccc4c32)cc1 (stereo not given) in Vaccinia Venus: -26%
Cc1ccc(COC(=O)c2nn(C)c(=O)c3ccccc23)cc1 in Vaccinia Venus: -20%

(listing goes on)
SMILES	Vaccinia mCherry	Vaccinia Venus
O=C(CN1CCCCC1)Nc1ccccc1Oc1ccccc1	-3%	2%
Cc1ccc(-c2nnc(Nc3ccc(OCC(N)=O)cc3)c3ccccc23)cc1S(=O)(=O)NCC1CCCO1 (stereo not given)	-6%	-3%
O=C(c1cn(-c2ccccc2)nc1-c1cccs1)N1CCN(c2ccc(F)cc2)CC1	/	?
COc1ccc(-c2cc(C(=O)NCCc3ccccc3)c3c(-c4ccc(Cl)cc4)[nH]nc3n2)cc1	?	?
Cc1nc(-c2ccc(S(=O)(=O)N3CCN(c4cccc(C(F)(F)F)c4)CC3)cc2)co1	-9%	-7%
Cc1ccccc1NC(=O)NCCCN1CCN(c2ccccc2)CC1	-15%	-13%
COc1ccccc1N1C(=O)NC(=O)/C(=C/c2ccc3c(c2)Cc2ccccc2-3)C1=O	i	-3%
Nc1nc(SCC(=O)O)c2[nH]cnc2n1	i	-16%
CCCCn1nnnc1C1(C)CCC(=O)N1Cc1ccc(C)cc1 (stereo not given)	24%	2%
COc1cc(/C=C(\C#N)C(=O)Nc2cccnc2)ccc1OC(C)C	-19%	1%
CCc1ccccc1N(CC(=O)NC1CCCCC1)C(=O)CCCC(=O)Nc1ccccn1	1%	1%
O=C(NCCc1ccccc1F)C1CC(=O)N(c2cccc(C(F)(F)F)c2)C1 (stereo not given)	-6%	-8%

Filtered by structure, those above with a CF3 group (three)
SMILES	Vaccinia mCherry	Vaccinia Venus
CCOP(=O)(OCC)C(NC(=O)c1cccs1)C(F)(F)F (stereo not given)	-5%	-20%
Cc1nc(-c2ccc(S(=O)(=O)N3CCN(c4cccc(C(F)(F)F)c4)CC3)cc2)co1	-9%	-7%
O=C(NCCc1ccccc1F)C1CC(=O)N(c2cccc(C(F)(F)F)c2)C1 (stereo not given)	-6%	-8%

Further structures:
SMILES	Vaccinia mCherry	Vaccinia Venus
O=C(CN1CCOCC1)Nc1ccccc1Sc1ccccc1	i	-9%
O=C(Nc1ccc(Cl)cc1)N(Cc1cccs1)Cc1cccs1	-30%	-18%
CC(=O)c1cccc(NC(=O)CN2C(=O)c3cccnc3Sc3ccccc32)c1	4%	-5%
Cc1ccc(N2C(=O)CCC(C(=O)O)C2c2cccs2)cc1 (stereo not given)	-1%	-7%
O=C(N/N=C/c1cccs1)C1CC(=O)N(c2ccccc2)C1 (stereo not given)	-14%	-6%
CCN(CC)CCCNc1ccc2ncn3c4ccc(O)cc4c(=O)c1c23	0.89µM*	?
COc1cc2[nH]c(=O)n(CCC(=O)NCCCN3CCN(c4ccccc4F)CC3)c(=O)c2cc1OC	-9%	16%
Cc1ccc(C(=O)N/N=C/c2ccc(-c3ccccc3[N+](=O)[O-])o2)cn1	?	?
CCC(=O)Nc1nc2ccccc2n1Cc1ccc(C)cc1	-1%[1.46 µM]	-23%
CCC(C(=O)NC(C)(C)C)N(Cc1ccc(F)cc1)C(=O)c1snc(C(N)=O)c1N (stereo not given)	i	-17%
CC1=C(C)CC2C(=O)N(Cc3ccccc3)C(=O)C2C1 (stereo not given)	-9%	-16%
CN1C(=O)[C@@H]2[C@@H]3C[C@@H]([C@H]4ON=C(c5ccc(Cl)cc5Cl)[C@@H]34)[C@@H]2C1=O	-23%	?
Cc1ccc2c(c1)N(Cc1ccc([N+](=O)[O-])cc1)C=NS2(=O)=O	-27%	-24%
CS(=O)(=O)Nc1ccc(F)cc1	-4%	-2%
CCOC(=O)c1cnn(-c2ccc(C(=O)Nc3cc(OC)c(OC)c(OC)c3)cc2)c1N	-2%	-6%
CCc1cc2c(=O)c(-c3nc4ccccc4n3C)c(C)oc2c(CN(CC)CC)c1O	/	-7%
CC(=O)c1cccc(S(=O)(=O)N2CCCC(c3nc4c(nnn4Cc4cccc(Cl)c4)c(=O)[nH]3)C2)c1 (stereo not given)	i	-18%
CC(C(=O)NC1CCCCCC1)c1ccc([N+](=O)[O-])cc1 (stereo not given)	-24%	-11%
Cn1c(CNc2ccc(F)cc2)nnc1SCC(=O)NNC(=O)Cc1ccccc1	-2%	-7%
CCOc1ccc(C(=O)Nc2nncs2)cc1OCC	-16%	-18%
COC(=O)Nc1ccc2c(c1)N(C(=O)CCN1CCN3CCCC3C1)c1ccccc1CC2 (stereo not given)	-2%&-6%	-17%&-15%
Cc1nn(C(=O)c2ccc(Cl)cc2)c(C)c1Sc1ccc(Cl)cc1	-16%	-4%
CC1CCCCN1CCNC(=O)C1CCN(S(=O)(=O)c2cccc3cccnc23)CC1 (stereo not given)	13%	-2%
COC(=O)c1ccc(Oc2ccc(S(=O)(=O)N3CCCCC3)cc2N)cc1	?	?
COc1cccc(CNC(=O)C2CSC3(C)CCC(=O)N23)c1 (stereo not given)	-19%	-10%
CCc1ccccc1NC(=O)c1ccc(S(=O)(=O)NCC2CCCO2)cc1 (stereo not given)	i	-29%
CCOC(=O)C1CCN(CC(O)COc2ccc(C(C)(C)CC)cc2)CC1 (stereo not given)	-15%	-7%
CC1(C(=O)Nc2cccc(NS(C)(=O)=O)c2)CCN1CCc1ccccc1 (stereo not given)	-9%	-15%
CC(C)c1ccc(NC(=O)C2(C)Cc3c(-c4ccc(C(N)=O)cc4)ccnc3O2)cc1 (stereo not given)	-17%	?
O=C(Nc1cccc(Cl)c1Cl)c1ccccc1OCC(=O)N1CCOCC1	i	-6%
Cc1ccc2c(c1)[C@@H]1CN(C)CC[C@@H]1N2S(=O)(=O)c1ccc([N+](=O)[O-])cc1	?	?
CCOc1cc(C(N)=O)cc(OCC)c1OCC	-18%	-13%
Cc1ccc(NC(=O)CCc2c(C)[nH]c(=O)c(C#N)c2C)cc1	i	-2%
O=C(c1cccc(F)c1)N1C2C=CC(C2)C1(C(F)(F)F)C(F)(F)F (stereo not given)	/	-17%
Cc1ccc(S(=O)(=O)N2CCN(C(C)C(=O)NCC(C)c3ccccc3)CC2)cc1 (stereo not given)	-10%	-11%
O=C(NNc1nc2cc3c(cc2s1)OCCO3)c1ccccc1	?	-11%
O=C(COc1ccc(Cl)cc1Cl)NN=C1CCCCC1	-19%	-11%
